# Source: PubChem
# VDR inhibitor – blocks the human vitamin D receptor. P11473. VDR-SRC2-3 peptide fluorescence polarization, 2 h. Potency, µM, without a hit: max response, negative = inhibition, most hits filed as inhibitors. actives 0.93% (n = 400,000); active means well fitted inhibition curve with a large enough effect; inconclusive means small, poorly fitted or top-dose-only effect, or another doubt; inactive means no such curve, though single readings can be large or run the other way; further: series mostly up to about 120 µM
# Target sequence (P11473 whole entry, looked up): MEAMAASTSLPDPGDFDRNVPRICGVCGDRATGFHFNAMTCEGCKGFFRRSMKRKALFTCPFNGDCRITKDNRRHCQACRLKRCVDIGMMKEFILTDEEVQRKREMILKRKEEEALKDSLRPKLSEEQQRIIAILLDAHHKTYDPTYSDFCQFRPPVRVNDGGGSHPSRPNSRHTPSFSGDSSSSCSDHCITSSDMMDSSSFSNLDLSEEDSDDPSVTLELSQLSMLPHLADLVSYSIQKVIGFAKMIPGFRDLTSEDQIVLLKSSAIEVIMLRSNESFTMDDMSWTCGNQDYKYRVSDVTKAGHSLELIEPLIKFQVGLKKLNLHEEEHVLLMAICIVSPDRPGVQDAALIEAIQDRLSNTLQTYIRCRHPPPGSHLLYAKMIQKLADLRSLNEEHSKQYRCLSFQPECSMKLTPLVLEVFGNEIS
#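 Reagent solutions, kept cold and dark, are dispensed first; compounds are then pinned in at 23 nl, plates briefly spun, and incubated 2 h at ambient temperature. Inhibition of VDR–SRC2-3 peptide binding is read by fluorescence polarization.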
# Active calls of the source: *; ? = inconclusive; & = joins results of further samples. On the % scale 0 is the no-effect control and ±100 the full control effect; potency means the concentration at half of the fitted maximal effect.
SMILES,VDR inhibitor
COc1ncnc2c1sc1nc(-c3ccccc3)c3c(c12)CCCC3,18%
COc1cccc(C(c2sc3ncnn3c2O)N2CC(C)OC(C)C2)c1 (stereo not drawn),-21%
CCOC(=O)c1[nH]ncc1CN1CCCC(C(=O)c2cccc3ccccc23)C1 (stereo not drawn),18%
COc1ccc2[nH]c(=O)c(CN(CC3CCCO3)C(=O)Nc3ccccc3)cc2c1 (stereo not drawn),-8%
CC(=O)OC1C[C@]2(C)[C@@H](CC(O)C3[C@]4(C)CCC(O)C(C)[C@@H]4CC[C@]32C)/C1=C(/CCC=C(C)C)C(=O)O (stereo partly drawn),0%
O=C(Nc1ccc(F)c(Cl)c1)N1CCCC1,-9%
Cc1ccc(S(=O)(=O)NCCC(=O)NCC(=O)Nc2c(C)cccc2C)cc1C,-2%
CC1CCCCN1CCCNC(=O)C1CCN(c2nc3ccccc3o2)CC1 (stereo not drawn),-3%
COc1ccc2[nH]c(C(=O)N(C)c3ccc(F)cc3F)cc2c1,-9%
CN(C)S(=O)(=O)NCCNc1ccc(C(F)(F)F)cc1[N+](=O)[O-],6%
S=c1[nH]nc(-c2ccc(Cl)cc2)n1-c1ccc(Cl)cc1,-13%
Cn1cc(S(=O)(=O)N2CCOCC2)cc1C(=O)NCc1ccccc1Cl,-18%
CCOP(=O)(OCC)C(C)(C)NC(=O)Nc1ccc(Cl)c(Cl)c1,0%
Nn1cnnc1N/N=C/c1ccccc1C(F)(F)F,-5%
C=CCNC(=O)NC(=O)COC(=O)/C(C#N)=C/c1ccc(OC)cc1,9%

# Rewritten with the structure last: entries from further up.
VDR inhibitor,smiles
6%,CN(C)S(=O)(=O)NCCNc1ccc(C(F)(F)F)cc1[N+](=O)[O-]
-13%,S=c1[nH]nc(-c2ccc(Cl)cc2)n1-c1ccc(Cl)cc1
-18%,Cn1cc(S(=O)(=O)N2CCOCC2)cc1C(=O)NCc1ccccc1Cl

# Continued.
SMILES,VDR inhibitor
O=S(=O)(c1ccc(F)c(Cl)c1)N1CCN(C/C=C/c2ccccc2)CC1,-5%
COc1cc(C(=O)Nc2nccs2)cc(OC)c1OC,7%
CCc1ccc(NC(=O)CSc2nc3ccsc3c(=O)n2CCCCCC(=O)O)cc1,-10%
CC(=O)N1CCCc2ccc(NS(=O)(=O)c3ccc(C)c(C)c3)cc21,5%&6%
COc1cc(CNCCN(C)C)ccc1OCc1c(F)cccc1Cl,-1%
CC(C)(C)c1cc(C(F)(F)F)c(C#N)c(=O)[nH]1,5%
COc1ccc(CNC(=O)N2CCN(c3ccc(F)cc3)CC2)cc1Cl,24%
CCn1cc(S(=O)(=O)N2CCN(Cc3cccc(Cl)c3)CC2)cn1,14%
O=C(Nc1cc(S(=O)(=O)Nc2ccccc2F)ccc1Cl)c1ccc(F)cc1F,1%
Cc1ccc2nc(-c3ccccn3)c(NC3CCCC3)n2c1,-25%
COc1cccc(C(C)NC(=O)Nc2ccccc2Cl)c1 (stereo not drawn),-7%
CC(=O)Cc1ccccc1OCC(=O)O,-3%
CC(C)(C)C(=O)Nc1nnc(SCC(=O)NCc2ccco2)s1,-9%
O=C(NCc1ccc2c(c1)OCO2)c1ccc2c(c1)N(Cc1c(F)cccc1Cl)C(=O)CS2,13%
CCN(c1ccccc1)S(=O)(=O)c1ccc(OC)c(NC(=O)CN(C)C)c1,-11%
O=C(O)c1cc2cc(Oc3ccccc3)ccc2[nH]1,-25%
Cc1c(CC(=O)NCCC(=O)O)c(=O)oc2cc3oc4c(c3cc12)CCCC4,13%
CCOC(=O)c1ccc(NC(=O)c2nc(SCc3ccccc3F)ncc2Cl)cc1,4%
CCOc1cc(-c2c(C#N)c(N)nc3c2CCCC3)ccc1O,2%
CCOC(=O)c1sc(NCC2CCCO2)nc1C (stereo not drawn),10%
CC(C)C[C@H](NC(=O)c1nc[nH]c1C(=O)N1CCC(C)CC1)C(=O)OC(C)(C)C,9%
COc1ccc(N2CCN(S(=O)(=O)c3c(C(=O)N4CCOCC4)c(C)n(C)c3C)CC2)cc1,-10%
CCc1ccc([C@H]2C(C(=O)O)=C[C@@H](CC3CCCC3)N2S(=O)(=O)c2ccc(C)cc2)cc1,-11%
Cc1cc(NC(=O)c2cc(C)on2)n(-c2ccccc2)n1,8%
COc1ccccc1N1CCN(C(=O)c2ccc(Cl)c(S(=O)(=O)N3CCCC3)c2)CC1,-19%
Nc1cc(C(=O)OCC(=O)N2CCCC2=O)ccc1Cl,9%
O=C(CN(Cc1ccc(Cl)cc1)C(=O)c1csnn1)NCc1ccccc1,25%
O=C(O)c1ccc(N/N=C2/CCCc3ccccc32)cc1,-12%
CCCn1c(SCc2nc(-c3ccc(OC)cc3OC)no2)nnc1-c1ccc(Cl)cc1,-11%
Cc1cc(C)c(C#N)c(SCc2ccc(F)cc2)n1,-22%

# 2 entries picked at random from those above, as already listed:
SMILES,VDR inhibitor
CC(C)(C)c1cc(C(F)(F)F)c(C#N)c(=O)[nH]1,5%
CC(=O)N1CCCc2ccc(NS(=O)(=O)c3ccc(C)c(C)c3)cc21,5%&6%

# (listing goes on)
SMILES,VDR inhibitor
CCC1CCCCN1CC(=O)Nc1cc(C)c2c(=O)oc3ccccc3c2n1 (stereo not drawn),-18%
Cc1cc(C)n(CC2CC(=O)N(c3ccc(Cl)cc3)C2=O)n1 (stereo not drawn),-9%
CCOC(Cn1c(-c2ccc(OC)cc2)nc2ccccc21)OCC,0%
Cn1c(=O)c(S(=O)C2CCCCC2)c(O)c2ccccc21 (stereo not drawn),-20%
Cc1ccc(-n2nc(C)c3c(C(=O)NCCc4ccc(S(N)(=O)=O)cc4)cc(C)nc32)cc1,6%
CC1CCCC(C)N1c1nnc(NC(=O)c2cc(-c3ccc(Br)cc3)on2)s1 (stereo not drawn),-17%
Cc1cc(C)n(CC(=O)NNC(=O)c2ccc(OC(F)(F)F)cc2)n1,12%
CC(N)CCCC(C)(C)O (stereo not drawn),8%
Cc1cc(C)cc(OCC(=O)Nc2ccc(N3CCN(C(=O)c4ccco4)CC3)cc2)c1,-10%
NS(=O)(=O)c1ccc(NC(=S)N2CCN(c3ccc(Cl)c(Cl)c3)CC2)cc1,11%
COc1ccc(CN2C(=O)N(c3ccccc3)C(=O)C2c2ccccc2)cc1COc1ccc(NC(C)=O)cc1 (stereo not drawn),-3%
CCCCC[n+]1ccn(C2=C([O-])c3ccccc3C(=O)/C2=N\S(=O)(=O)c2ccccc2)c1,-12%
COC(=O)c1ccccc1-c1c2ccc(=N)cc-2oc2cc(N)ccc12,-27%
Cc1ccc(C(=O)N2CCN(c3cccc(Cl)c3)CC2)cc1-n1c(C)nc2cccnc21,12%
Cc1ccc(-c2nnc(SCc3nc(N)nc(Nc4ccccc4C)n3)n2N)cc1,9%
O=[N+]([O-])c1ccc(N(c2ccccc2)c2ccccc2)cc1,5%
Cc1ccc2c(c1)N(C(=O)CCC(=O)Nc1ccccc1Cl)CC(C)O2 (stereo not drawn),0%&6%
CCC(=O)Nc1nc2ccc(NC(C)=O)cc2s1,3%
COc1cccc(OCC(=O)O/N=C(\N)c2ccncc2)c1,?
CC1CN(Cc2nc3c(c(=O)n(C)c(=O)n3C)n2CCCc2ccccc2)CC(C)O1 (stereo not drawn),9%
O=c1[nH]nc(CNc2cccc(C(F)(F)F)c2)c2ccccc12,-24%
CC(C)c1onc(C(=O)Nc2cccc(Cl)c2)c1[N+](=O)[O-],15%
Cc1ccc(-c2nnc(SCC(N)=O)nc2-c2ccc(C)cc2)cc1,-1%
CCOC(=O)CN(C(=O)COc1nc(C)cc(C)c1C#N)c1cccc(Cl)c1,-1%
O=C(O)c1ccc(N=Nc2c(O)ccc3ncccc23)cc1,-10%
CCOc1ccccc1NC(=O)C1CCN(S(=O)(=O)c2c(C)noc2C)CC1,18%
COC(=O)CCNc1n[nH]c(=O)[nH]c1=O,20%
Cc1ccc2c(c1)N(C(=O)CCC(=O)N1CCOCC1)CC(C)O2 (stereo not drawn),-4%
CCCS(=O)(=O)c1c(S(=O)(=O)CCC)c2c3ccccc3ccn2c1C(=O)OC,7%
CCC(C)(C)NC(=O)C(c1ccc(C)cc1)N(Cc1ccco1)C(=O)CCC(=O)Nc1nccs1 (stereo not drawn),16%

# Some of the entries so far, as tab-separated lines:
Molecule	VDR inhibitor
CCOC(=O)CN(C(=O)COc1nc(C)cc(C)c1C#N)c1cccc(Cl)c1	-1%
O=C(O)c1ccc(N=Nc2c(O)ccc3ncccc23)cc1	-10%
CCC(=O)Nc1nc2ccc(NC(C)=O)cc2s1	3%

# Later entries.
SMILES,VDR inhibitor
CC(C)(C)c1nc2sc3c(c2c(=O)o1)CCCC3,-14%
Cc1ccc2c(Sc3ccc(Cl)cc3)c(C(=O)N3CCC(C)CC3)[nH]c2c1,1%
O=C(Nc1nnc(S(=O)(=O)N2CCCc3ccccc32)s1)c1cccc(Cl)c1,1%
O=C(NCCCN1CCOCC1)C(=O)N/N=C/c1c(Cl)cccc1Cl,-5%
CCN(CC)S(=O)(=O)c1ccc(C(=O)NC(=S)N(CCC#N)Cc2cccnc2)cc1,3%
CCN(CC)S(=O)(=O)c1ccc(N2CCCC2)c(NC(=O)Cc2ccccc2)c1,-11%
CCOC(=O)/C=C/C(=O)Nc1cc(S(=O)(=O)Nc2ccc(OC)cc2)ccc1N1CCOCC1,-4%
O=C(NCc1ccco1)c1ccc(=O)[nH]n1,-2%
CC(C)(C)NS(=O)(=O)c1cc(C(=O)Nc2sccc2C#N)ccc1Cl,-4%
COc1ccc(CNC(=O)C(=O)Nc2cc(Cl)ccc2OC)cc1,-14%
O=C(Nc1ncccc1O)c1cc2ccccc2o1,12%
Cc1cnc(C)c(N2CCC(C(=O)NCc3cccs3)CC2)n1,-3%
CC(C)(C)C(=O)/C=C(\N)c1ccccn1,12%
COc1cccc(OCc2nnc(SCC(=O)NNC(=O)C3CCCCC3)n2C)c1,-2%
CCCc1cc(=O)oc2c(C)c(OCC(=O)N3CCC(C(=O)O)(c4ccccc4)CC3)ccc12,9%
Cc1nc2ncnn2c(N2CCN(C(=O)Cc3cccs3)CC2)c1C,-5%
CCOc1cc(/C=N/O)cc(Br)c1OCC(=O)NCc1ccccc1,7%
O=[N+]([O-])c1cccc2ccc(/C=C/c3ccc(F)cc3)nc12,-12%
OCc1cccc[n+]1CCc1ccccc1,4%
CCOC(=O)N1CCN(CC(=O)Nc2c(C(=O)OC)[nH]c3ccccc23)CC1,-16%
Cc1nn(C)c(Oc2ccccc2)c1CCNS(=O)(=O)c1ccccc1,9%
CCOc1ccc(/C(O)=C2/C(=O)C(=O)N(CCOCCO)C2c2ccccc2)cc1 (stereo not drawn),2%
COCCn1c(C)cc(C(=O)CSc2ccc(NC(C)=O)cc2)c1C,9%
Cc1ccc(NC(=O)C2CCN(S(=O)(=O)c3ccc4c(c3)OCCO4)CC2)nc1,-10%
CCC(OC(=O)CN1C(=O)C(=O)c2ccccc21)C(=O)Nc1ccc(S(N)(=O)=O)cc1 (stereo not drawn),-3%
CCCCn1c(=O)nc2n(-c3ccc(Cl)cc3)c3ccccc3cc-2c1=O,-10%
Cn1cccc1/C=N/NC(=O)C12CC3CC(CC(C3)C1)C2,-6%
COc1ccc(NC(=O)C(=O)NCC(c2ccc3c(c2)OCO3)N2CCN(C)CC2)cc1 (stereo not drawn),1%
CCCOc1ccc(-c2nc(SCC(=O)c3ccc(Cl)cc3)n[nH]2)cc1,-7%
COc1ccccc1Cn1c(-c2ccccc2OC)nc2ccccc21,-4%
CCN(CC(=O)NCc1ccc(F)cc1)C(=O)c1cc2ccccc2o1,-2%
CC(=O)Nc1ccc(S(=O)(=O)Nc2ccc3c(c2)OCCO3)cc1,11%
O=C(COC(=O)c1ccncc1)Nc1cc(Cl)ccc1Cl,-1%
Cc1c(Cl)cccc1NC(CC(=O)c1ccccc1)C(=O)O (stereo not drawn),?
Cc1cccc(Cc2c(C)nc3nc(SCC(=O)NC4CCCCC4)nn3c2C)c1,9%
Cc1oc2cc(OC(C)C(=O)O)ccc2c(=O)c1Oc1ccccc1 (stereo not drawn),1%
CN(C)/C=C(\C#N)C(=O)c1cccnc1Oc1cccc(F)c1,-6%
C/C(=N/OC(=O)c1c(-c2ccccc2Cl)noc1C)c1cnccn1,7%
Cc1ccc(C(=O)OCC(=O)N2CC(C)OC(C)C2)cc1 (stereo not drawn),3%
Cc1onc(-c2ccc(Cl)cc2Cl)c1-c1csc(COc2ccccc2)n1,4%
CC(=O)c1ccsc1-c1c(C)cc2oc(=O)cc(-c3ccccc3)c2c1C,-28%
O=C(NCCCc1nc2ccccc2n1Cc1ccc(Cl)cc1)c1ccco1,5%
CCOC(=O)c1c(C)[nH]c(C(=O)COC(=O)c2cc(C)oc2C)c1C,14%
CC1CC(C)CN(C(=S)Nc2ccc3nc4n(c(=O)c3c2)CCCCC4)C1 (stereo not drawn),8%
Cn1c(COc2ccccc2)nc2ccccc21,2%
O=C(CN1C(=O)NC2(CCCC2)C1=O)Nc1ccccc1N1CCCCC1,-8%
Cc1cc(C)c(C(=O)CN2C(=O)NC3(CCC(C)CC3)C2=O)cc1C (stereo not drawn),-3%
CCSc1nnc(NC(=O)CSc2c(Cl)cccc2Cl)s1,3%
COc1ccc(-n2c(Cc3cccn3C)nnc2SCC(=O)Nc2ccc(F)cc2)cc1,?
O=C(NC1CC1)c1ccc(CSCc2ccccc2Cl)o1,-4%
CCc1nnc(NC(=O)CSc2nnc(CNc3ccc(OC)cc3)n2C)s1,10%
Cc1cc(=O)[nH]c(SCc2nc3ncccn3c2Br)n1,21%
COC(=O)c1ccccc1NC(=O)CN1CCC(NC(=O)c2ccccc2C)CC1,1%
CC(=O)NCC(=O)OCC(=O)c1ccc2ccccc2c1,15%

# Ordered by value in VDR inhibitor (rising): 3 from the list above.
mol | VDR inhibitor
O=C(O)c1cc2cc(Oc3ccccc3)ccc2[nH]1 | -25%
Cc1ccc(C(=O)OCC(=O)N2CC(C)OC(C)C2)cc1 (stereo not drawn) | 3%
O=C(Nc1ncccc1O)c1cc2ccccc2o1 | 12%

# The list is partial, so the mix of outcomes need not match the whole.
